Arbovirus inh: antivirals against arbovirus infection, primary screen, cell-based, full library, 10K replicate subset; actives 0.37% (n = 200,000); arbovirus infection cell-based antiviral screen; inhibition, % at 10 µM;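 active = inhibition from about 30%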;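 also: bluetongue infection of BSR cells; cell survival read as ATP light after 72 h; 0% = infected wells without compound and 100% = uninfected wells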
Mtb bLac sens: beta-lactam sensitization of Mtb H37Rv, H37Rv. actives 0.27% (n = 330,000). M. tuberculosis H37Rv growth with meropenem, percent inhibition; hits of this screen are not shown here. inhibition, % at 25 µM;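 active = about 74% or more and at least 40 points above the plate without the antibiotic, then above 30% in a dose series; inconclusive = first-round hits that could not be retested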;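 also: growth measured after seven days incubation then overnight dye step; 0% = bacteria only wells and 100% = bacteria with antibiotic; twin plates without the antibiotic show which effects depend on it; some results filed as inactive read as strong as hits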
Mtb H37Rv: M. tuberculosis H37Rv growth inhibitors, H37Rv strain (AID 1626); M. tuberculosis H37Rv growth inhibition; higher % means a stronger effect; inhibition, % at 10 µM; hits with a dose series show IC50 in µM; actives 0.95% (n = 220,000);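 active = confirmed in a dose series; inconclusive = inhibition above 80% but not taken into the dose series; inactive = below 80% or under 30% at every dose of the series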;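 also: bacteria incubated seven days before Alamar blue readout; 0% = bacteria only wells and 100% = bacteria with antibiotic wells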
YopH inh: YopH tyrosine phosphatase inhibitors, primary screen, biochemical, fluorescence Ex485/Em525; actives 0.16% (n = 140,000); AID 898, 2007; YopH tyrosine phosphatase [Yersinia enterocolitica]; inhibition, %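 (about 10 µM by stock and volumes)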;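 active = inhibition of 50% or more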;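 also: controls were vehicle for no effect and minimum signal wells for full effect; inactives centre near -20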
RecA intein inh: Mtb RecA intein splicing inhibitors, primary screen, biochemical, fluorescence, HTS | AID 2221, 2009 | actives 0.75% (n = 290,000) | Protein RecA (Mycobacterium tuberculosis (strain ATCC 25618 / H37Rv)), P9WHJ3 | cell-free RecA intein splicing | inhibition, %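 (about 9 µM by stock and volumes)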; in the data active = inhibition above about 30%; inconclusive = no clear call, values can overlap the other calls;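 also: 0% = vehicle wells and 100% = reference inhibitor control wells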
Target sequence (P9WHJ3 whole entry, looked up): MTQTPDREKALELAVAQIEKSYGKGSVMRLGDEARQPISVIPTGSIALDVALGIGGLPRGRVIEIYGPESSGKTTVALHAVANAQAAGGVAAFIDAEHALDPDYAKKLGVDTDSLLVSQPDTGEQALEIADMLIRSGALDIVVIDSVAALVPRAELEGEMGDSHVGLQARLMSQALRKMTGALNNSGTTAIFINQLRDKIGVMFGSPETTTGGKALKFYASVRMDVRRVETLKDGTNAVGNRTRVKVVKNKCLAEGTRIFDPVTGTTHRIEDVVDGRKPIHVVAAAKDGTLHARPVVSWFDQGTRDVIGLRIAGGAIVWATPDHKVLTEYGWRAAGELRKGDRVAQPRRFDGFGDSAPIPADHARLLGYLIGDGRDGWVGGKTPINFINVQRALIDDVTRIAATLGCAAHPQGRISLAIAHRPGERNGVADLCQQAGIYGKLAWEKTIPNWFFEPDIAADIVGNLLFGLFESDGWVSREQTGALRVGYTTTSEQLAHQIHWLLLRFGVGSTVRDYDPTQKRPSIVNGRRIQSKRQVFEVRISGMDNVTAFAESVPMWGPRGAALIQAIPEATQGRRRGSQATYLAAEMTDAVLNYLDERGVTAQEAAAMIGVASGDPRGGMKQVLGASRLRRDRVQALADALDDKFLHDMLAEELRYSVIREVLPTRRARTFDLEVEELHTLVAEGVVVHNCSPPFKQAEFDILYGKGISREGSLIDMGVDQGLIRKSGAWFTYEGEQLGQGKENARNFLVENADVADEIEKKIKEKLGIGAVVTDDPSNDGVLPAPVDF
Arbovirus inh repeat: second read-out of Arbovirus inh, no call of its own (marks repeat the call); inhibition, %; measured here: 10K subset replicate screen; many hits read low in the repeat;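 first of two repeat runs on a subset; 0% = infected and 100% = uninfected wells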
Numbers without * were called inactive. An excerpt; the hit share may differ from the screen's.

For O=C(NCC1CCCO1)C(=O)NCC(c1ccco1)N1CCN(c2ccccc2F)CC1 (centres undefined) the results were Arbovirus inh 0, Mtb bLac sens 1, Mtb H37Rv -3%, YopH inh -21 and RecA intein inh -2.7.
Screening O=C(NCCc1ccccc1)C(=O)NCC1OCCN1S(=O)(=O)c1ccc(Cl)cc1 (centres undefined) returned Mtb bLac sens -3, Mtb H37Rv 7% and RecA intein inh -1.2.
For O=C(Nc1nccs1)c1cncc(Br)c1 the results were Arbovirus inh 14, Mtb bLac sens 47, Mtb H37Rv 10% and RecA intein inh -2.7.
Screening CCC(=O)NC1(C(F)(F)F)C(=O)Nc2c1c(=O)[nH]c(=O)n2CC(C)C (centres undefined) returned Mtb bLac sens -7, Mtb H37Rv -2% and RecA intein inh 0.4.
For CCCCn1c(N)c(N(CC(C)C)C(=O)c2ccc(Br)o2)c(=O)[nH]c1=O the results were Mtb bLac sens -6 and RecA intein inh 9.9.
For CCCCN(CC)C(=O)Cn1cnc2sc(C)c(S(=O)(=O)N3CCC(C)CC3)c2c1=O the results were Mtb bLac sens -14 and RecA intein inh -2.1.
Screening COc1ccc(CCN=C(N)NS(=O)(=O)c2ccc(OC)cc2)cc1 returned Arbovirus inh -2, Mtb bLac sens -7, Mtb H37Rv -1%, YopH inh -21 and RecA intein inh 0.2.
Screening CC1CCCCN1C(=O)c1cc2ccccc2cc1O (centres undefined) returned Mtb bLac sens -5 and RecA intein inh -1.9.
Screening Cc1cccc(C(=O)NCC(=O)OCC(=O)NCCNC(=O)COC(=O)CNC(=O)c2cccc(C)c2)c1 returned Mtb bLac sens -3 and RecA intein inh -3.3.
Screening COc1cc(NC(=O)Cc2ccccc2)nc(OC)n1 returned Mtb bLac sens 5 and RecA intein inh -1.4.
Screening CC1CCCN(c2ccc(C(=O)NCc3ccco3)cc2[N+](=O)[O-])C1 (centres undefined) returned Arbovirus inh -11, Mtb bLac sens 5, Mtb H37Rv 9%, YopH inh 2 and RecA intein inh 1.7.
CCOC(=O)c1c(NC(=O)CN2CCCCC2)sc2c1CCC(C=O)=C2Cl was read as Arbovirus inh -26, Mtb bLac sens 96, Mtb H37Rv 66%, YopH inh -5 and RecA intein inh 2.7.
`CCC1CCCCN1C(=S)Nc1ccc(S(=O)(=O)Nc2ncccn2)cc1` (centres undefined) gave Mtb bLac sens -1 and RecA intein inh -3.6.
For CCCN=C(C)c1c(-c2ccccc2)[nH]n(-c2nc3ccccc3s2)c1=O the results were Arbovirus inh 5, Mtb bLac sens 1, Mtb H37Rv 10%, YopH inh 5 and RecA intein inh 0.2.
COCCn1c(C)cc(C(=O)CSc2cc(C)c3ccc(OC)cc3n2)c1C was read as Arbovirus inh 13, Mtb bLac sens -4, Mtb H37Rv 1%, YopH inh -22 and RecA intein inh -2.2.

Among those listed so far, two contain fluorine:
For O=C(NCC1CCCO1)C(=O)NCC(c1ccco1)N1CCN(c2ccccc2F)CC1 (centres undefined) the results were Arbovirus inh 0, Mtb bLac sens 1, Mtb H37Rv -3%, YopH inh -21 and RecA intein inh -2.7.
Screening CCC(=O)NC1(C(F)(F)F)C(=O)Nc2c1c(=O)[nH]c(=O)n2CC(C)C (centres undefined) returned Mtb bLac sens -7, Mtb H37Rv -2% and RecA intein inh 0.4.

(list continues)
For CCOC(=O)N1CCC(NC(=O)c2sc3nc4n(c(=O)c3c2C)CCCC4)CC1 the results were Arbovirus inh 5, Mtb bLac sens 4, Mtb H37Rv 3%, YopH inh 6 and RecA intein inh 1.7.
Screening CCOc1ccc2nc(NC(=O)CN3CCN(c4ccccn4)CC3)sc2c1 returned Arbovirus inh 2, Mtb bLac sens 52, Mtb H37Rv 0%, YopH inh -18 and RecA intein inh 0.3.
CNC(=O)/C(C#N)=C/c1ccc(-c2ccc(OC)cc2[N+](=O)[O-])o1 was read as Arbovirus inh -4, Mtb bLac sens -9, Mtb H37Rv -13% and YopH inh -21.
O=C1CC2CS(=O)(=O)CC2N1C1CCCCC1 (centres undefined) was read as Arbovirus inh 5, Mtb bLac sens -5, Mtb H37Rv -2%, YopH inh -45, RecA intein inh 0.6 and Arbovirus inh repeat 0.
CCOC(=O)c1ccc(NC(=O)C2CCN(S(=O)(=O)c3ccccc3)CC2)cc1 was read as Arbovirus inh -8, Mtb bLac sens 6, Mtb H37Rv 34%, YopH inh -21, RecA intein inh 1.2 and Arbovirus inh repeat 8.
COc1cc(C2C(C(=O)c3ccco3)=C(O)C(=O)N2Cc2ccccc2)ccc1O (centres undefined) was read as Mtb bLac sens -8 and RecA intein inh -1.4.
`Clc1nc(-c2n[nH]nc2Cl)n[nH]1` gave Arbovirus inh -2, Mtb bLac sens 1, Mtb H37Rv -6%, YopH inh -39 and RecA intein inh 0.5.
Screening O=C(CN1C(=O)c2ccc([N+](=O)[O-])cc2C1=O)NCC1CCCO1 (centres undefined) returned Mtb bLac sens -9 and RecA intein inh -7.0.
For Cc1ccc(S(=O)(=O)Nc2ccccc2CNc2ccc(Br)cn2)cc1 the results were Arbovirus inh -26, Mtb bLac sens 3, Mtb H37Rv 2%, YopH inh -17 and RecA intein inh 5.5.
Screening Cc1ccc(S(=O)(=O)N2C(=O)C(C)SC2=Nc2ccccc2)cc1 (centres undefined) returned Arbovirus inh 2, Mtb bLac sens -3, Mtb H37Rv 1%, YopH inh -15 and RecA intein inh -1.3.
CCC1Oc2ccccc2N(CC(=O)NCC2CCCO2)C1=O (centres undefined) was read as Mtb bLac sens -8 and RecA intein inh -0.4.
`Cc1ccc2nsnc2c1NC(=O)c1ccc(-c2cc(Cl)ccc2Cl)o1` gave Arbovirus inh -22, Mtb bLac sens 3, Mtb H37Rv 0%, YopH inh -21 and RecA intein inh 12.
Screening COc1ccc(CN2CC(C(=O)NCc3cccc(OC)c3)CC2=O)cc1 (centres undefined) returned Arbovirus inh 4, Mtb bLac sens -16, Mtb H37Rv 0%, YopH inh -44 and RecA intein inh -1.5.
`Cc1cc(C)cc(N(CC(=O)Nc2ccc(C)cc2Cl)S(=O)(=O)c2c(C)[nH]c(=O)[nH]c2=O)c1` gave Mtb bLac sens 6 and RecA intein inh 3.2.
For COc1ccc(NC(=O)CSc2nc3cccnc3n2C)cc1 the results were Arbovirus inh 2, Mtb bLac sens -8, Mtb H37Rv -5% and RecA intein inh 0.3.
C=CC[n+]1c(/C=C/c2ccc(OC(C)=O)c(OC)c2)ccc2ccccc21 was read as Mtb bLac sens 1 and RecA intein inh 1.9.
Screening COc1ccc(CCNS(=O)(=O)c2cccc(C(=O)O)c2)cc1OC returned Arbovirus inh -1, Mtb bLac sens -1 and YopH inh -53.
COc1ccc(NC(=O)C2CCCN(C)C2)cc1OCC(C)C (centres undefined) was read as Arbovirus inh -4, Mtb bLac sens 1, Mtb H37Rv -9%, YopH inh -3 and RecA intein inh -1.6.
Screening COc1ccccc1Nc1nc(=O)[nH]nc1C returned Arbovirus inh 8, Mtb bLac sens inconclusive, Mtb H37Rv -3%, YopH inh -19 and RecA intein inh 1.6.
Screening CS(=O)(=O)N1CCN(c2ccccc2NC(=O)c2ccc([N+](=O)[O-])o2)CC1 returned Arbovirus inh 4, Mtb bLac sens 1, Mtb H37Rv 4% and RecA intein inh 2.5.
CCN(C(=O)COC(=O)c1cc(-c2ccccc2)nc2c1c(C)nn2-c1ccccc1)C1CCS(=O)(=O)C1 (centres undefined) was read as Arbovirus inh -31, Mtb bLac sens 0, Mtb H37Rv 9%, YopH inh -7 and RecA intein inh -16.
`Cc1onc(-c2ccccc2)c1C(=O)NC(C)c1ccccc1` (centres undefined) gave Mtb bLac sens -6 and RecA intein inh 1.4.
`CN(NC(=O)COc1ccccc1)c1ccccc1` gave Arbovirus inh -3, Mtb bLac sens 1, Mtb H37Rv -3%, YopH inh -31 and RecA intein inh 1.7.
For Cc1ccc(O)c(-c2cc(C(=O)NCc3ccc4c(c3)OCO4)[nH]n2)c1 the results were Arbovirus inh -3, Mtb bLac sens 1, Mtb H37Rv 3%, YopH inh -30 and RecA intein inh 6.7.
CCC(Cc1ccccc1)n1c(=S)[nH]c2ccccc2c1=O (centres undefined) was read as Arbovirus inh 4, Mtb bLac sens -2, Mtb H37Rv -2% and RecA intein inh 9.0.
`COc1ccc(C(=O)Nc2ccc(N3CCN(c4ccc(OC)cc4)CC3)c(C#N)c2)cc1` gave Arbovirus inh 4, Mtb bLac sens 13, Mtb H37Rv -8%, YopH inh -24 and RecA intein inh 0.0.
For COc1ccc(CNC(=O)C(C)n2nc(C)c3c(C)n(-c4ccccc4)nc3c2=O)c(OC)c1 (centres undefined) the results were Mtb bLac sens -7 and RecA intein inh 4.6.
For COc1ccc(C(=O)CSc2nnc(CNC(=O)c3ccccc3)o2)cc1 the results were Mtb bLac sens inconclusive and RecA intein inh 4.4.
`Cc1cccc2cc(/C=N/NC(=O)c3ccccc3O)c(Cl)nc12` gave Arbovirus inh 4, Mtb bLac sens 15, Mtb H37Rv 8%, YopH inh -26 and RecA intein inh 2.1.
For Cn1ncc(Br)c1NC(=O)Nc1ccccc1 the results were Mtb bLac sens 0 and RecA intein inh 1.8.
O=C(NCc1ccccn1)c1cccs1 was read as Arbovirus inh 5, Mtb bLac sens -2, Mtb H37Rv -6%, YopH inh 2 and RecA intein inh 4.2.
For CN1CCN(C(=O)c2cccn(Cc3ccc(C(F)(F)F)cc3)c2=O)CC1 the results were Mtb bLac sens 0 and RecA intein inh -0.2.
Screening O=C(COc1ccccc1Cl)NCCNC(=O)c1ccncc1 returned Mtb bLac sens 9 and RecA intein inh 5.4.
For CCn1nc(NC(=O)c2ccncc2)c2cc3ccc(C)cc3nc21 the results were Arbovirus inh 4, Mtb bLac sens 6, Mtb H37Rv 7%, YopH inh -36 and RecA intein inh -6.9.
`Cc1cc(C)n(/N=C/c2cccc([N+](=O)[O-])c2)c(=O)c1` gave Arbovirus inh 3, Mtb bLac sens -2, Mtb H37Rv 0%, YopH inh -9 and RecA intein inh -1.9.
Screening COc1ccc(C=C2C(=O)N(C)C(=O)N(C)C2=O)cc1CSc1ccccn1 returned Arbovirus inh 3, Mtb bLac sens -5, Mtb H37Rv 6%, YopH inh 21 and RecA intein inh 3.5.
Cn1nccc1CNC(=O)c1c(Cl)cnn1C was read as Arbovirus inh 1, Mtb bLac sens -6, Mtb H37Rv 3%, YopH inh -6 and RecA intein inh 0.5.
For CCN(Cc1ccccc1)c1ccc(/C=N/N2CCOCC2)cc1 the results were Arbovirus inh 0, Mtb bLac sens 4, Mtb H37Rv 2%, YopH inh -19 and RecA intein inh 3.7.
`COc1cc(NC(=O)C2CCCC2)c(OC)cc1Cl` gave Arbovirus inh -11, Mtb bLac sens 7, YopH inh -21, RecA intein inh 0.3 and Arbovirus inh repeat -8.
`COc1ccc(OC)c(-c2c3c([nH]c(=S)c2C#N)CCCC3)c1` gave Arbovirus inh 0, Mtb bLac sens 3, Mtb H37Rv -1% and RecA intein inh 4.7.
For COc1ccccc1CNc1ccc2nnc(CCNC(=O)c3ccccc3)n2n1 the results were Arbovirus inh 3, Mtb bLac sens 1, Mtb H37Rv 0% and RecA intein inh -0.7.
CCN1CCN(C(=O)C2=CC(c3ccc(C)cc3)=NS(=O)(=O)N2C)CC1 was read as Mtb bLac sens 0 and RecA intein inh -5.8.
Cc1cc(NC(=O)CSc2nc3ccccc3c(=O)n2CCCC(=O)NCc2ccco2)n[nH]1 was read as Arbovirus inh 7, Mtb bLac sens 6, Mtb H37Rv -10%, YopH inh -16 and RecA intein inh -2.2.
CC1CC(C)CN(CCCNC(=O)c2c(O)nc3ccccn3c2=O)C1 (centres undefined) was read as Mtb bLac sens -12 and RecA intein inh -1.5.
For Cc1cc(NS(=O)(=O)c2ccc(NS(=O)(=O)c3cc(C)c(Cl)cc3Cl)cc2)no1 the results were Mtb bLac sens -14 and RecA intein inh -1.7.
`CSc1cccc(NC(=O)CCS(=O)(=O)c2cccc3nonc23)c1` gave Mtb bLac sens 97 and RecA intein inh 2.0.
For CCc1ccc(NC(=O)C(C)OC(=O)c2ccc(-n3cnnn3)cc2)cc1 (centres undefined) the results were Mtb bLac sens -6 and RecA intein inh 0.4.
`O=C(O)c1cccc(-c2ccc(/C=N/NC(=O)c3cccnc3)o2)c1` gave Arbovirus inh -3, Mtb bLac sens 6, Mtb H37Rv -7%, YopH inh -20 and RecA intein inh -5.4.

3 entries out of the list, arranged by count of non-hydrogen atoms, low to high.
O=C(NCc1ccccn1)c1cccs1 was read as Arbovirus inh 5, Mtb bLac sens -2, Mtb H37Rv -6%, YopH inh 2 and RecA intein inh 4.2.
CCN1CCN(C(=O)C2=CC(c3ccc(C)cc3)=NS(=O)(=O)N2C)CC1 was read as Mtb bLac sens 0 and RecA intein inh -5.8.
For CN1CCN(C(=O)c2cccn(Cc3ccc(C(F)(F)F)cc3)c2=O)CC1 the results were Mtb bLac sens 0 and RecA intein inh -0.2.
